# Tgondii IFNg = T. gondii growth inhibition under IFN-gamma; Toxoplasma gondii growth in IFN-gamma-treated host cells; stronger effect = lower value; reference of the scale not given here; activity change, negative = inhibition, %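 (about 20 µM by stock and volumes)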; actives 3.8% (n = 69,000); AID 1259416;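 active = below -70%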;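 note: host cells are HeLa cells infected with Toxoplasma gondii; parasite growth read as luciferase light; one replicate is shown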
# * hit, by the source's call; i = inactive. An excerpt. The share of hits here may be higher or lower than overall.
SMILES,Tgondii IFNg
C/C=C/c1ccccc1[C@@H]1[C@@H](C#N)N(c2nc(CC)cs2)[C@H]1CO,19
COc1cc2ncnc(Nc3ccc(Cl)cc3F)c2cc1OC,-82*
CCOCC(=O)N1CCCn2nnc(COc3cccnc3)c2C1,50
CN(C)C1CCN(C(=O)Cc2ccsc2)C(C(=O)O)C1 (stereo unspecified),-2
COc1ccc(OC)c(C(O)CN2CCCC(c3nc4ccccc4[nH]3)C2)c1 (stereo unspecified),112
CN(C)C(=O)N1CCC2(CCC2NS(=O)(=O)c2ccccc2)CC1 (stereo unspecified),-4
CCN1C(=O)C(CC(=O)Nc2ccc(F)cc2)N(Cc2ccc3c(c2)OCO3)C1=S (stereo unspecified),-7
CC(C(=O)N1CCN(S(=O)(=O)c2nn(C)cc2-c2cccnc2)CC1)c1ccccc1 (stereo unspecified),-56
CCc1nc(C)cn1S(=O)(=O)c1cc(OC)ccc1OC,12
Cc1ccc(C)c(C(NC(=O)Cc2c(C)[nH][nH]c2=O)c2cccnc2)c1 (stereo unspecified),-8
Cc1ccc(-c2nc3ccccc3s2)cc1N,174
CC(C)CCNC(=O)CN(Cc1ccco1)C(=O)Cn1nnc(-c2ccc(F)cc2)n1,5
Cc1ccc2nc(C)cc(C(=O)N(Cc3nccn3C)C3CC3)c2c1,-37
CCNC(=S)Nc1ccc(OC(F)(F)F)cc1,22
Cc1nn(Cc2ccccc2)c(C)c1CCC(=O)O,-43
Cc1cc(NC(=O)COc2ccccc2C(C)(C)C)n(Cc2cccnc2)n1,5
COc1cc2[nH]c3c(=O)n(CC(=O)N4CCN(c5ccccn5)CC4)cnc3c2cc1OC,41
Cc1ccc(N2CCC3(CC2)OCC(=O)NC3C)nn1 (stereo unspecified),3
CC(C)C1CN(C(=O)c2cnn3ccn(C)c23)CCCN1CC1CC1 (stereo unspecified),2
Cc1occc1C(=O)N(Cc1cnn(C)c1)C1CC1,0
O=C(Nc1cnc2ccccc2c1)c1ccc(-n2cnnn2)cc1,294
CCOCC1CN(C(=O)c2ccncc2F)Cc2nccn2C1 (stereo unspecified),-18
COc1ccc(-n2ccnc2CN2CCC(n3nc(C)cc3C)C2)cc1 (stereo unspecified),-1
CCC(Cn1cnc(-c2ccccc2)c1-c1cccc(C)n1)N1CCN(C)CC1 (stereo unspecified),-51
O=C(c1cc(COc2c(F)cccc2F)on1)N1CCCC(c2ccccc2)CC1 (stereo unspecified),-35
CN(C)C(=O)c1cccc(-c2ccc3c(c2)[C@H]2[C@H](CCN2C(=O)Cc2ccccc2)[C@H](CO)N3)c1,-49
COc1cc(C2N(C(C)=O)N=C(NC(C)=O)N2C(C)=O)cc(OC)c1OC (stereo unspecified),-26
COc1ccc(CCn2c(-c3cnn(C)c3C)n[nH]c2=O)cc1,5
CC(C)(C)CC(C)(C)NC(=O)C(Sc1ccccc1N)c1ccccc1 (stereo unspecified),-88*
CCNS(=O)(=O)c1ccc2c(c1)Cc1cc(S(=O)(=O)NCC)ccc1-2,-13
CC(C)Cc1cc(C(=O)N(C)C(C)c2nccs2)n(C)n1 (stereo unspecified),100
CC1(C)C(=O)OC(/C=C\c2ccccc2)C(C)(C)C1=O (stereo unspecified),6
COc1cc(COc2ccc3c(C)c(Cc4ccccc4)c(=O)oc3c2)cc(OC)c1OC,-13
COc1ccc(Cl)cc1NC(=O)Cn1c(=O)cc(C(=O)N2CCCC2)c2ccccc21,0
Cc1cc(=O)oc2cc(CN3C[C@H](O)[C@@H](N4CCN(C)CC4)C3)ccc12,8
CC(C)CC1CCN(c2ncnc3c2CCNC3)C1 (stereo unspecified),65
CNC(=O)CCN(C)Cc1ccc(C(C)=O)cc1,4
CN1CCC2(CCC1=O)CCN(c1nccc(N3CCC(O)CC3)n1)CC2,-1
O=C1C[C@H](c2ccccc2)C(=O)N[C@H](c2ccccc2)C/C=C\C[C@H](c2ccccc2)N1,26
COCCNc1nc2cc(C(=O)N3C[C@@H]4[C@H](C3)[C@H]3CC[C@@H]4O3)ccc2n1C,3
Fc1ccc(CN(C/C=C/c2ccco2)Cc2ccncc2)cc1,21
CCN1CCc2ncc(CNC(=O)c3cnn(C)c3)n2CC1,-26
COc1cccc(-c2ccccc2[C@H]2[C@@H](C#N)N(C(=O)Cc3ccccc3)[C@@H]2CO)c1,15
COc1ccc(NC(=O)C(=O)NCCc2sc(-c3ccc(Cl)cc3)nc2C)cc1,96
COc1ccc(-n2c(=O)c(C(=O)NC3CCCCCC3)c(O)c3cccnc32)cc1,71
O=C(C[C@@H]1C=C[C@@H](NC(=O)c2ccc3c(c2)OCO3)[C@H](CO)O1)NC1Cc2ccccc2C1,9
CC(=O)N(C)c1cccc(-c2ccc3nnc(C)n3n2)c1,9
CCCCC(=O)Nc1ccc(C(=O)N2CCCCC2C(=O)O)cc1 (stereo unspecified),3
CCCn1cc(CN2CCN(c3cccc(C(C)C)n3)CC2)c(C)n1,-50
Cc1noc(-c2ccccc2)c1NC(=O)Nc1ccc(-c2nc3ccccc3s2)cc1,56
CC(CCc1ccco1)NC1CCC2(CCNCC2)CC1 (stereo unspecified),-68
COc1ccc(-c2nnc(-c3nc(Nc4cccc(OC)c4)c4ccccc4n3)o2)cc1,101
CN1CC2(CCCN(Cc3cn[nH]c3-c3ccc(F)cc3)CC2)OC1=O (stereo unspecified),28
CCN1C(=O)CCc2cc(NC(=O)c3n[nH]c4ccccc34)ccc21,125
COc1ccc(CN(Cc2cnc(-c3ccc(OC)cc3)nc2)CC2CCCO2)cc1 (stereo unspecified),11
O=C(O)CCc1cc(C(F)(F)F)cc(C(F)(F)F)c1,-7
CCN1C[C@@H](COC)[C@@]2(CCN(C(=O)CC3Cc4ccccc4C3)C2)C1,83
Cc1cc(C)c([C@@H]2C[C@H]3CN(C4CCCC4)C(=O)[C@]34CCCN24)c(-n2cccn2)c1,-47
O=C(O)CCC(=O)N1C[C@@H]2C[C@@H](CN(Cc3ccco3)C2)C1,8
Cc1cc(C)c(S(=O)(=O)NCCc2csc(-c3ccc(F)cc3)n2)c(C)c1,84

# 7 records drawn at random from those above, as already listed:
SMILES,Tgondii IFNg
CN1CC2(CCCN(Cc3cn[nH]c3-c3ccc(F)cc3)CC2)OC1=O (stereo unspecified),28
COc1ccc(CN(Cc2cnc(-c3ccc(OC)cc3)nc2)CC2CCCO2)cc1 (stereo unspecified),11
Cc1noc(-c2ccccc2)c1NC(=O)Nc1ccc(-c2nc3ccccc3s2)cc1,56
O=C(O)CCC(=O)N1C[C@@H]2C[C@@H](CN(Cc3ccco3)C2)C1,8
CC(CCc1ccco1)NC1CCC2(CCNCC2)CC1 (stereo unspecified),-68
CCN1C(=O)CCc2cc(NC(=O)c3n[nH]c4ccccc34)ccc21,125
Cc1cc(C)c([C@@H]2C[C@H]3CN(C4CCCC4)C(=O)[C@]34CCCN24)c(-n2cccn2)c1,-47

# Remaining list, next part.
SMILES,Tgondii IFNg
O=C(C[C@H]1C=C[C@@H](NC(=O)Nc2ccc3c(c2)OCO3)[C@@H](CO)O1)NCCCN1CCOCC1,13
O=C(COc1ccccc1O)N1CCOC(CC2CCCCC2)C1 (stereo unspecified),-3
Cc1ccccc1SCC(=O)N1CCNCC1C(=O)N1CCOCC1 (stereo unspecified),-4
Cc1oc(C2CCN(C(=O)NC3CCCCC3)CC2)nc1C(=O)N1CCSCC1,57
Cn1ccnc1-c1nn(CCNC(=O)COc2ccccc2)cc1-c1ccc(F)cc1,2
COc1ccc2c3c([nH]c2c1)[C@@H](CO)NCC31CCN(C(=O)Nc2ccccc2F)CC1,11
O=C(Cn1cccc(C(=O)NCC(F)F)c1=O)Nc1ccc(F)cc1,1
CCc1cc(C(=O)N2CCN(C3CCN(C)CC3)CC2)nc2cc(-c3ccccn3)nn12,94
COCCN1C[C@H]2COC[C@H](CC(=O)NCc3ccco3)[C@H]2C1,-4
CCc1ccc(CN(C)c2nc(-c3ccncc3)nc3c2CNC3)nc1,-8
c1ccc(CN2CCCC3(CCCN(Cc4cc5n(n4)CCNC5)C3)C2)cc1 (stereo unspecified),-4
COc1cccc(CC(=O)Nc2ccc3c(c2)CCC(=O)N3C)c1,-37

# An excerpt from above in order of molar mass, ascending.
SMILES,Tgondii IFNg
Cc1nn(Cc2ccccc2)c(C)c1CCC(=O)O,-43
CCN1CCc2ncc(CNC(=O)c3cnn(C)c3)n2CC1,-26
CCc1ccc(CN(C)c2nc(-c3ccncc3)nc3c2CNC3)nc1,-8
O=C(Cn1cccc(C(=O)NCC(F)F)c1=O)Nc1ccc(F)cc1,1
Cc1cc(NC(=O)COc2ccccc2C(C)(C)C)n(Cc2cccnc2)n1,5
CCNS(=O)(=O)c1ccc2c(c1)Cc1cc(S(=O)(=O)NCC)ccc1-2,-13

# More structures
SMILES,Tgondii IFNg
CCOC(=O)Nc1cc(-c2ccc(C)c(NS(C)(=O)=O)c2)nn2c(C)nnc12,0
Cc1ccc(NC(=O)C(=O)NCCc2csc(-c3ccc(Cl)cc3)n2)cc1,37
Cc1ccc(F)c(C(=O)N2CCn3cncc3C2)c1F,5
O=C(NCc1cccnc1)c1c(O)c2ccccc2[nH]c1=O,141
CCCn1c2c(c(O)c(C(=O)OCC)c1=O)CCCC2,-1
C[C@@H](NCCc1ccc(O)cc1)[C@@H](O)c1ccc(O)cc1,-61
COc1ccc2c(c1)NC1(CCN(C(=O)c3ccc(C)c(C)c3)CC1)c1cccn1-2,23
CCn1c(=O)c(-c2nc(-c3ccccc3)no2)c(O)c2ccc(F)cc21,-19
Fc1cccc(CN2C3COCC2CC(OCC2CC2)C3)c1 (stereo unspecified),34
CC(C)CN1CCCC(N2C(=O)NC3(CCN(CCc4ccccc4)CC3)C2=O)C1 (stereo unspecified),-44
Cc1ccc(-c2coc(-c3ccc(NS(=O)(=O)c4ccc(CC(C)C)cc4)cc3)n2)c(C)c1,7
Cc1ccc(S(=O)(=O)Nc2ccc3c(c2)Cc2cc(Br)ccc2-3)cc1,-1
CCN1CCn2c(C)cnc2C12CCN(S(=O)(=O)CC)CC2,8
Cc1cc(-c2c(-c3ccccc3)ncn2CCc2ccc(O)cc2)n[nH]1,16
COc1ccccc1NC(=O)Nc1ccc(-c2nc(-c3ccc(C)cc3)co2)cc1,-77*
COc1cccc(C(=O)N2CCc3c([nH]c4ccccc34)C2c2ccc(SC)cc2)c1 (stereo unspecified),-63
Nc1ncc(Br)cc1Br,91
CN(C)CCNC(=O)[C@H]1CC2CN(Cc3ccoc3)CC2N1C (stereo partly specified),18
COc1ccc(-c2cc(=S)sc(N)c2C#N)cc1OC,65
COc1ccc(S(=O)(=O)N2CCC3(CC2)Nc2ccc(C)c(C)c2-n2cccc23)cc1Cl,20
C[C@@H]1CN([C@H](C)CO)C(=O)c2cccc(NC(=O)c3ccno3)c2O[C@H]1CN(C)S(=O)(=O)c1cccs1,8
Cc1ccsc1[C@@H]1CCN(C(=O)c2ccc(-n3cnnc3)cc2)C[C@H]1O,-81*
O=S(=O)(NCC1CCC2(CNCCOC2)O1)c1ccccc1 (stereo unspecified),7
CC(C)N(C)[C@@H]1c2ccccc2[C@H]2CN(C(=O)c3cnccn3)C[C@H]21,-5
COCC(=O)N1CC[C@@H](OCC2CC2)[C@H]1Cc1ccncc1,i
Cc1cc(N2CCCC2)n2nc(CN3CCC(N4CCCCC4)CC3)nc2n1,-16
C[C@H]1CCCCO[C@H](CN(C)S(=O)(=O)c2cn(C)cn2)[C@@H](C)CN([C@@H](C)CO)C(=O)c2cc(NC(=O)Nc3cccc4ccccc34)ccc2O1,i
CCn1ncc(-c2cc(C(=O)N3CCc4sccc4C3c3ccccc3)no2)c1C (stereo unspecified),-47
CCOc1ccc(CNC(=O)c2nc(Nc3ccc(CC)cc3)c3ccccc3n2)cc1,44
CCc1ccc2oc(=O)cc(CN3CCN(Cc4nc(-c5ccc(C)cc5)oc4C)CC3)c2c1,-42
CCc1ccc(C2c3[nH]c4ccccc4c3CCN2C(=O)CSC)cc1 (stereo unspecified),1
Cc1cnc(N2CCc3onc(C(=O)NCCN(C)C)c3C2)nc1,-3
Cc1cnn(CC(=O)NC(C)c2cc3cc(Cl)ccc3o2)c1 (stereo unspecified),15
Cc1cc(C)c(-c2ccn(C(=O)c3cc(-c4ccccc4)oc3C)n2)[nH]1,12
Cc1ccc2ccc3cc(C(=O)NCc4cccnc4)nc3c2[nH]1,-42
Cc1cc(NC(=O)Cn2ncc3c(N4CCC(C)CC4)ncnc32)ccc1Br,139
Cc1ccc(CN2CCC3(CC2)CCN(c2cncnc2)C3=O)cc1,-34
Cc1ccc(-c2nc(C(=O)N3CCCCCC3)c3n2CCCCC3)cc1,-80*
CC(C)(C)c1cc(N/C=C/c2nnnn2-c2ccc(Br)cc2)no1,-45
COC(C)c1cccc(-c2cnc(-n3cnnc3)c(C)c2)c1 (stereo unspecified),-11
Cc1ccc(NC(=O)N2CCC3(CC2)Nc2ccccc2-n2cccc23)cc1,118
Clc1ccc2c(N3CCc4nnc(C5CCCO5)n4CC3)ccnc2c1 (stereo unspecified),3
Cc1cccc(-n2cc(CN(C)C(=O)c3cc(C)nc(C)n3)cn2)c1,-8
COC(=O)C1=C(C)NC(C)=C([N+](=O)[O-])[C@@H]1c1ccccc1C(F)(F)F,-29
COc1cccc(CNC(=O)C[C@H]2CC[C@H]3[C@@H](COc4ccc(NC(=O)c5cccs5)cc4C(=O)N3C)O2)c1,4
Cc1ccc(-c2nnc(-c3nc(NCc4ccco4)c4ccccc4n3)o2)cc1,35
COc1ccccc1NC(=O)CSCc1cnc(C)c(O)c1CO,-2
CC(C)n1ccc(-c2cc(C(=O)C3CC3)c3ccccn23)n1,-3
COc1cc2c(cc1OC)CN(CC(=O)NC(C)c1cn(C)nc1C)CC2 (stereo unspecified),2
Cc1cc(N2CCN(CCc3ccncc3)CC2)nc(-c2cccnc2)n1,-46
COCCN1C(=O)CCc2cc(NC(=O)c3ccc(F)cc3F)ccc21,56
